Bioassay records deposited in PubChem by National Center for Advancing Translational Sciences (NCATS).
GLA inh pH 4.5: inhibitors of human alpha-galactosidase A at pH 4.5 | P06280 | purified enzyme, 4-MU-alpha-Gal fluorescence, pH 4.5 | activity change, negative = inhibition, % at 105 µM | 230,000 tested, under 10 active; inconclusive = small, poorly fitted or top-dose-only inhibition, or a rising curve; inactive = flat fitted curve, though single readings scatter; no compound was filed as active;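 note: 0% = full activity with enzyme and -100% = basal without enzyme; dose as in the result columns while the protocol names 77 µM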
Target sequence (P06280 whole entry, looked up): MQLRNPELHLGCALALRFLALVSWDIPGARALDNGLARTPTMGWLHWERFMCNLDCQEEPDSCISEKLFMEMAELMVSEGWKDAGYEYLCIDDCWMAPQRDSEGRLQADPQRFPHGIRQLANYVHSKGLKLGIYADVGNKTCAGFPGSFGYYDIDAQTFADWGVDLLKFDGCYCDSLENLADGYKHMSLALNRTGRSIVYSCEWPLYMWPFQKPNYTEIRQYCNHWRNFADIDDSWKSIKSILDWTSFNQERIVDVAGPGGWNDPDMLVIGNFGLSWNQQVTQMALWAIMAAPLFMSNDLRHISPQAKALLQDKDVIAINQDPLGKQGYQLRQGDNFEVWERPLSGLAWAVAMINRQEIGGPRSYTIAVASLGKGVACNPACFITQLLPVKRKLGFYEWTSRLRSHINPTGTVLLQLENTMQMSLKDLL
Rango dissoc inh: inhibition of RanGTP-driven Rango-importin beta dissociation; O95149+P62826; Biochemical FRET Rango-importin beta, RanGTP-induced dissociation; hit rate 0.071% among 340,000; Potency, µM (top dose mostly 46.1 µM), for inactives: at the highest dose activity change, negative = inhibition; active means falling FRET ratio curve, often poorly fitted, with flat reads before Ran was added; inconclusive means other falling curves, or compound fluorescence or quenching; inactive means flat or rising ratio curve;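 note: potency is the fitted concentration of half-maximal effect; % of control where 0% means no effect; nearly all actives have a fitted effect of over 45% in size; -100% = wells without RanGTP and RCC1; the record marks most hits as doubtful in a second field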
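Recombinant Rango FRET biosensor (EYFP–snurportin 1 IBB–cerulean CFP10) at 0.1 uM premixed with 0.25 uM importin beta in PBS, 1 mM DTT, 0.02% Tween-20, 0.1% BSA. Compound added 5 min; RanGTP-RCC1 (0.6 uM Ran, 2 mM GTP, 0.2 uM RCC1) then triggers release, read at 45 min.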
miR-21 FLuc: miR-21 reporter, rising signal | Potency, µM (titrated, usually from 38.3 µM), without a hit: at the top dose reporter change, positive = more light | HeLa miR-21 FLuc reporter, luciferase, 48 h | 340,000 tested, under 10 active; active = well fitted rising curve with a large enough effect; inconclusive = small, poorly fitted or top-dose-only effect; inactive = no such curve, though single readings can be large or run the other way;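 note: % of control where 0% means no effect; miR-21 action dims this reporter so a rising signal means less miR-21 action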
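Compounds were titrated across several concentrations (up to approximately 40 uM) and incubated 48 hours with HeLa miR-21-FLuc reporter cells (miR-21 target sequence downstream of FLuc, endogenous miR-21). Readout was firefly luciferase luminescence after lytic detection reagent.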
Rango complex inh: prevents formation of the Rango-importin beta complex | Potency, µM (doses to about 92.2 µM), without a hit: top-dose inhibition of complex formation | Rango CFP/YFP FRET sensor + importin beta, 45 min | hit rate 0.031% among 340,000 | AID 540263 | Q14974; active = rising FRET ratio curve, often small or poorly fitted; inconclusive = mostly compound fluorescence or quenching in the first reads; inactive = flat curves in all reads;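 note: potency is the fitted concentration of half-maximal effect; 0% = DMSO wells and 100% = buffer wells lacking importin beta; nearly all actives have a fitted effect of over 15% in size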
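FRET biosensor (snurportin 1 IBB flanked by EYFP and cerulean), 50 nM, with compound 5 min, then 0.125 microM importin beta in PBS, 1 mM DTT, 0.02% Tween-20, 0.1% BSA. CFP/YFP ratio read after 45 min at room temperature; pre-read flags interference.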
Starred values were filed as active, the others as inactive; ? = inconclusive; nt = no result given. The list is partial; count on the stated rates, not on these rows.

Fields – Rango complex inh, miR-21 FLuc, GLA inh pH 4.5, Rango dissoc inh
#1 O=C(OC1CCOC1=O)c1cccc(S(=O)(=O)Nc2ccc(F)cc2)c1 (centres undefined)
  2.7%, -4%, -2, -7%
#2 CCOCCCNC(=O)/C(C#N)=C/c1ccc(C(=O)OC)cc1
  0.8%, 4%, 4, -1%
#3 CC(/C=C1\SC(=O)N(CC(=O)Nc2ccc(O)cc2)C1=O)=C\c1ccccc1
  0.0%, 9%, 1, 7%
#4 CCc1ccccc1NC(=O)C(CC)Sc1nc2cc3c(cc2c(=O)n1Cc1ccco1)OCO3 (centres undefined)
  5.9%, -4%, 6, 1%
#5 CCn1c(SCC(=O)Nc2ccc(OC)cc2OC)nc2nc3c(cc2c1=O)COC(C)(C)C3
  -0.5%, 8%, -4, 5%
#6 CCC12CCCN3CCC4(C(=C(C(=O)OC)C1)Nc1ccccc14)C32 (centres undefined)
  ?, 3%, -10, -6%
#7 COC(=O)C(C)Sc1snnc1-c1ccccc1 (centres undefined)
  -0.5%, -4%, 0, -2%
#8 COc1ccc(C(=O)COC(=O)c2ccccc2NS(=O)(=O)c2ccc(O)c([N+](=O)[O-])c2)cc1
  -2.4%, -6%, -12, 4%
#9 COc1ccccc1CNC(=O)COC(=O)Cc1c[nH]c2ccccc12
  -0.8%, nt, nt, -11%
#10 CC(C)Cc1cc(C(=O)Nc2cc(C(F)(F)F)ccc2Cl)no1
  0.8%, -7%, -14, -11%
#11 CCCNc1nc(N2CCCC2)nc(N2CCCC2)n1
  2.6%, 7%, 9, 10%
#12 O=C(Cn1nc(-c2ccccc2)c2ccccc2c1=O)NCCN1CCOCC1
  -1.5%, -2%, -4, -1%
#13 Cc1ccc2c(c1)N(CC(=O)NCCCN1CCOCC1)C(=O)C(C(C)C)O2 (centres undefined)
  2.7%, nt, nt, 4%
#14 O=C(NCCc1cccc(Cl)c1)c1cccnc1
  -0.4%, -45%, 2, 2%
#15 CCc1cc(C(=O)c2ccc(OC)cc2)c(NC(=O)CC(C)(C)CC(=O)O)s1
  -0.2%, 0%, -7, 15%
#16 COc1ccc(C(CNC(=O)C(=O)NC2CCCCC2)N2CCN(C)CC2)cc1 (centres undefined)
  0.1%, nt, nt, -5%
#17 CCOC(=O)c1[nH]c(C)c(C(=O)NC2CCCCC2)c1C
  1.7%, 0%, -1, -7%
#18 CC(=O)Nc1cccc(C(=O)OCC(=O)NCc2cc(C)c(O)c(C)c2)c1
  0.0%, nt, nt, 1%
#19 O=C(CSc1nnc(COc2ccccc2)o1)NC1CC2CCC1C2 (centres undefined)
  -0.7%, -2%, nt, 0%
#20 CCOc1nc(NCCO)nc(NCCC2=CCCCC2)n1
  ?, -9%, -10, -1%
#21 COc1ccc(NC(=O)Cn2nc3n(c2=S)CCC3)cc1
  -0.6%, -12%, -1, 2%
#22 Cn1c(SCC(=O)Nc2ccc(Br)cc2)nc(O)cc1=O
  1.0%, -2%, -1, 2%
#23 Cc1ccc(S(=O)(=O)N2CCOCC2)cc1NC(=O)COc1ccc(C(=O)c2ccccc2)cc1
  0.5%, nt, nt, ?
#24 Cc1ccc(C2c3[nH]c4ccccc4c3C[C@H]3C(=O)N(c4ccccc4C(=O)N4CCC(C(=O)O)CC4)C(=O)N23)cc1 (some centres undefined)
  -1.0%, -1%, nt, -29%
#25 CC(C)c1ccc(NC2CCCN(C(=O)CCN3CCCCC3=O)C2)cc1 (centres undefined)
  -0.4%, 0%, nt, -1%
#26 Cc1cc(C)n2nc(CC(=O)NNC(=O)c3ccc(N(C)C)cc3)nc2n1
  0.6%, 0%, nt, -16%
#27 Cc1[nH]nc2c1C(c1cccc(O)c1)C1=C(CC(C)(C)CC1=O)N2 (centres undefined)
  1.4%, 1%, -14, 13%
#28 Cc1nnc2n1CCCCC2
  5.0%, 5%, -4, -13%
#29 COC1=CC(=O)c2ccccc2C1=O
  -0.3%, nt, nt, 20%
#30 O=S(=O)(/N=C(/c1ccccc1)N1CCOCC1)c1ccc(F)cc1
  1.3%, 1%, nt, -5%
#31 O=C(CCC(=O)Nc1nnc(C2CCCCC2)s1)NCC1CCCO1 (centres undefined)
  0.5%, -8%, 6, 5%
#32 Cc1ccc(C(=O)C(OC(=O)c2cnccn2)c2ccccc2)cc1C (centres undefined)
  1.7%, -10%, 7, 24%
#33 CC(C)(C)OC(=O)C[C@@H]1C/C=C\C[C@@H](CC(=O)N(CCO)Cc2ccccc2)C(=O)NC[C@H](c2ccccc2)OC1=O
  2.0%, nt, nt, -13%
#34 COc1ccc(-n2cc(C(=O)c3cc4ccccc4oc3=O)c(C(C)=O)n2)cc1
  -2.7%, -4%, 1, -16%
#35 c1ccc(-c2csc(NNC3=NCCCCC3)n2)cc1
  0.9%, -23%, -1, 22%
#36 O=C(CSc1ccc2c(c1)OCCO2)Nc1ccc2c(c1)OCO2
  -0.1%, -8%, 5, 6%
#37 O=C(Nc1ccc(N2CCOCC2)c(Cl)c1)c1ccc(-n2cnnc2)cc1Cl
  4.3%, -1%, nt, 9%
#38 CCOC(=O)CN(C#N)c1nc(N(C)C)nc(N(C)C)n1
  -1.2%, 1%, 5, -2%
#39 Cc1c(Cl)cccc1NC(=O)CSc1nc(=O)n(CCCN2CCOCC2)c2c1CCC2
  2.4%, nt, nt, 0%
#40 Cc1ccc(S(=O)(=O)NNC(=S)Nc2c(Cl)cccc2Cl)cc1
  -4.0%, -2%, -6, 18%
#41 CC1=C/C(=C(/c2ccc(O)c(C)c2)c2ccccc2S(=O)(=O)O)C=CC1=O
  -0.6%, nt, nt, 0%
#42 Cc1ccc(C2=NN(CC(=O)NCc3cccnc3)C(=O)CC2)cc1
  nt, -1%, 6, nt
#43 Cn1c(=O)c2c(nc(NCCOc3ccc(C(C)(C)C)cc3)n2C)n(C)c1=O
  5.8%, -1%, -7, 16%
#44 Cc1ccccc1NS(=O)(=O)c1cccc2nsnc12
  -1.0%, -2%, nt, -9%
#45 COc1ccc(Cl)cc1C(=O)NNC(=O)c1cccc(S(=O)(=O)N(C)C)c1
  -2.3%, -11%, 6, -15%
#46 CCOC(=O)C1CN(S(=O)(=O)c2cccc(C(F)(F)F)c2)c2cc(CC(=O)OC)ccc2O1 (centres undefined)
  0.1%, 2%, -27, 4%
#47 Cc1cnn(C(=S)NCC2CCCO2)c1 (centres undefined)
  -2.6%, -11%, 4, -4%
#48 O=C(N1CCCC1)C12CCC3CC(CC(C3)C1)C2
  5.4%, -1%, 3, 18%
#49 CC1CCCN(CC(O)COc2ccc(-c3ccccc3)cc2)C1 (centres undefined)
  5.0%, 6%, nt, -4%
#50 Cc1ccccc1OCC(=O)NCC(=O)OCc1ccc(Br)cc1
  4.9%, 0%, nt, -10%
#51 CCOc1ccc2nc(NC(=O)c3cccc(-c4cc5ccccc5oc4=O)c3)sc2c1
  -0.1%, -30%, -6, 0%
#52 CC(C)(C)c1ccc(C(=O)OCc2c(-c3ccccc3)ncc3ccccc23)cc1
  -0.3%, nt, nt, -13%
#53 CN(C)c1ccc(C(=O)/C=C/c2ccco2)cc1
  ?, -51%, -22, -16%
#54 O=C(CN1CCCN(S(=O)(=O)c2ccc(Br)cc2)CC1)Nc1ccc2c(c1)OCO2
  nt, 2%, -5, nt
#55 O=C(N1CCCCC1)N1CCCN(C(=O)N2CCCCC2)CC1
  -1.5%, -3%, 0, 7%
#56 COc1ccc(S(=O)(=O)N(C)C[C@H]2Oc3ccc(NS(=O)(=O)c4ccccc4)cc3CC(=O)N([C@H](C)CO)C[C@@H]2C)cc1
  -2.7%, nt, nt, 12%
#57 CC(=O)Nc1ccc(S(=O)(=O)Nc2nccc(/C=C/c3ccc(Cl)cc3)n2)cc1
  5.2%, -18%, -3, 5%
#58 COc1ccccc1-n1cc(CN2CCN(CC=C(C)C)C(CCO)C2)cn1 (centres undefined)
  -1.2%, 3%, -4, 20%
#59 CC(C(=O)NCCS(=O)(=O)c1ccc(Br)cc1)S(=O)(=O)c1ccc(Cl)cc1 (centres undefined)
  2.5%, 1%, nt, 21%
#60 CCn1c(SCC(=O)Nc2ccc(OC)cc2)nc2nc3c(cc2c1=O)COC(C)(C)C3
  1.0%, -1%, -11, ?

Whole records, quoted from the list. Order of screens: Rango complex inh | miR-21 FLuc | GLA inh pH 4.5 | Rango dissoc inh
Shown for CC(C)(C)c1ccc(C(=O)OCc2c(-c3ccccc3)ncc3ccccc23)cc1 = -0.3% | nt | nt | -13%
Shown for Cc1ccccc1NS(=O)(=O)c1cccc2nsnc12 = -1.0% | -2% | nt | -9%

More entries follow.
Fields – Rango complex inh, miR-21 FLuc, GLA inh pH 4.5, Rango dissoc inh
#61 O=C(c1ccccc1)N1CCC(c2nc3c(nnn3Cc3ccco3)c(=O)[nH]2)CC1
  -6.9%, -10%, 1, -8%
#62 Cc1ccccc1-c1nc(CS(=O)CC(=O)NC2CC2)c(C)o1 (centres undefined)
  0.0%, -5%, nt, -1%
#63 CC1CCCCC1NC(=O)c1ccc(S(=O)(=O)NCC2CCCO2)cc1 (centres undefined)
  0.9%, -2%, -1, 8%
#64 CCOC(=O)c1cc(C)n(Cc2cccc(OC)c2OC)c1C
  2.1%, 13%, 1, -5%
#65 Cc1ccc(OCC(=O)Oc2c(C)cccc2C)cc1
  0.6%, -8%, nt, -1%
#66 O=C(CN(C(=O)CCC(=O)Nc1ccccn1)c1ccccc1F)NCc1ccc2c(c1)OCO2
  -3.2%, 3%, nt, -16%
#67 COC(=O)c1sccc1NS(=O)(=O)c1ccc(OC)cc1
  -0.7%, 20%, 6, -4%
#68 COc1ccccc1NC(=O)N(Cc1ccccc1)C1=NCC(C)S1 (centres undefined)
  -2.5%, -12%, -3, -2%
#69 O=C(C1=COCCO1)N1CCN(c2nc3ccc([N+](=O)[O-])cc3s2)CC1
  -0.3%, nt, nt, 9%
#70 N#Cc1nc(-c2cccc3ccccc23)oc1NCCN1CCCCC1
  -0.8%, -41%, 22, 9%
#71 O=C(NCc1ccccc1CN1CCCC1)c1cc2cc(Cl)ccc2o1
  1.8%, nt, nt, 5%
#72 CNC(=O)Cn1nc(C)c2ccccc2c1=O
  -1.6%, 0%, -7, 2%
#73 CCOC(=O)C(CC)n1cnc2c(oc3ccccc32)c1=O (centres undefined)
  -0.2%, -12%, 0, -3%
#74 Cc1ccc(-n2c(SCC(=O)N3CCOCC3)nnc2-c2ccncc2)cc1C
  4.2%, -7%, 7, 0%
#75 O=C(NC1CCN(C(=O)c2cccc([N+](=O)[O-])c2)CC1)c1ccccc1
  0.7%, 1%, nt, -2%
#76 COc1ccc(OCc2cc(=O)c3ccc4c(c3o2)C=CC(C)(C)O4)cc1OC
  -1.4%, nt, nt, -11%
#77 Cc1ccc(SCCNC(=O)c2cccc([N+](=O)[O-])c2C)cc1
  0.2%, 5%, -4, 1%
#78 Cn1c(COc2ccccc2O)[n+](C)c2ccccc21
  11%, 0%, nt, -1%
#79 Cc1cccc(NC(=O)c2ccccc2OCC(=O)N2CCOCC2)c1C
  1.3%, 1%, -3, 10%
#80 COc1cccc(-n2c(CN3CCN(c4ccccc4)CC3)nc3ccc([N+](=O)[O-])cc3c2=O)c1
  -0.3%, 1%, -2, -6%
#81 CC(C)c1cc(N2CCN(C(=O)c3ccco3)CC2)n2c(nc3ccccc32)c1C#N
  ?, 4%, 4, ?
#82 COc1ccc(N2CCN(C(=O)CCCN3C(=O)c4cccc5cccc(c45)C3=O)CC2)cc1
  -0.9%, 2%, -1, 1%
#83 O=C(Nc1ccccc1C(F)(F)F)N1CCN(c2ccc3nncn3n2)CC1
  0.3%, 0%, 0, -3%
#84 Cc1ccc(C)c(NC(=O)c2cc(C)nc3ccccc23)c1
  -4.9%, -2%, nt, 2%
